ALR H2O2 inh – inhibitors of human sulfhydryl oxidase ALR; P55789; purified ALR, DTT oxidation, H2O2 HRP-luminol luminescence; inhibition, % (concentration not given with the values); 290,000 compounds, 3.8% hits; AID 485317;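 active = mean and each replicate at 75% or more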;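 also: stock transfer was 7.5 nL into about 7.5 µL; 0% = neutral wells and 100% = wells with inactivated enzyme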
Ecoli growth – inhibitors of Escherichia coli growth; OD600, 23 h; active compounds read low; AID 1053175; OD600 absorbance (no concentration beside the values); 330,000 compounds, 0.21% hits;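 active = OD600 absorbance below the run mean of sample wells minus 3.6 SD, in any replicate, cut at about 0.56 in these data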;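 also: stock transfer was 300 nL into about 60 µL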
HNF4A DNA FP – change in binding of human HNF4 alpha to DNA | 360,000 compounds, 0.3% hits | activity change, % at 10 µM | AID 1224865 | HNF4a-FITC DNA binding, fluorescence polarization, 1 h; in the data active = activity change above about 30%, passing the limit was not always enough;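 also: controls were the assay level and a saturating level of protein; the project sought stronger binding though the title names inhibitors; some compounds called inactive have numbers as strong as hits; positive values seem to mean higher polarization but the record does not say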
B2AR ag – human beta-2 adrenergic receptor agonism by FAP | P07550 | response, % (test concentration not listed) | AID 504454 | 340,000 compounds, 0.43% hits | Am2.2-beta2AR cells, FAP receptor internalization, flow cytometry; reference of the scale not given here;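 active = response above a set limit, near 3 SD of response in nonfluorescent compounds, cut at about 42% in these data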;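 also: stock transfer was 100 nL into about 11 µL; a reference agonist was the positive control; negative values mostly stem from fluorescent compounds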
FGF22 binding – shifts melting point of recombinant human FGF22 | recombinant FGF22 thermal shift, SYPRO orange fluorescence; percent of sucrose octasulfate shift, DMSO zero | calls only at 9.99 µM | 340,000 compounds, 1.5% hits | AID 651658;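 active = melting point raised past a set limit in the mean and every replicate; three in four hits are not shown here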
UCH37 DUB inh – blocks the human deubiquitinase UCH37; 330,000 compounds, 0.33% hits; purified proteasome/UCH37, Ub-AMC cleavage fluorescence; AID 588478; inhibition, % (no concentration beside the values);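 active = mean of two replicates above 20%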;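 also: 0% = compound-free wells with enzyme and 100% = wells lacking proteasome; stock transfer was 100 nL into about 20 µL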
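Assay system: Proteasome-bound UCH37. Buffer or medium: pH 7.4 Tris-HCl (50 mM) with ovalbumin, ATP-MgCl2, DTT. Incubation: 30 min preincubation with enzyme, 25 min cleavage at room temperature. Measured by: fluorescence, ex 355 nm, em 460 nm. Read-out basis: percent inhibition. Control set: wells without proteasome as full block, compound-free enzyme plus substrate as uninhibited.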
LANA-H2B inh – blocks KSHV LANA binding to histone H2A/H2B. cell-free LANA-H2A/H2B peptide, fluorescence polarization. 320,000 compounds, 0.6% hits. Q9QR71. inhibition, % (concentration not given with the values). AID 2629; in the data active = inhibition mostly above about 10%, no sharp cut-off; inactive = mostly below about 6.7%;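 also: stock transfer was 7.5 nL into about 10 µL; 0% = median of vehicle wells and 100% = median of positive control wells; one replicate is shown; the record names a cut of 25% in any replicate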
Target sequence (Q9QR71 whole entry, looked up): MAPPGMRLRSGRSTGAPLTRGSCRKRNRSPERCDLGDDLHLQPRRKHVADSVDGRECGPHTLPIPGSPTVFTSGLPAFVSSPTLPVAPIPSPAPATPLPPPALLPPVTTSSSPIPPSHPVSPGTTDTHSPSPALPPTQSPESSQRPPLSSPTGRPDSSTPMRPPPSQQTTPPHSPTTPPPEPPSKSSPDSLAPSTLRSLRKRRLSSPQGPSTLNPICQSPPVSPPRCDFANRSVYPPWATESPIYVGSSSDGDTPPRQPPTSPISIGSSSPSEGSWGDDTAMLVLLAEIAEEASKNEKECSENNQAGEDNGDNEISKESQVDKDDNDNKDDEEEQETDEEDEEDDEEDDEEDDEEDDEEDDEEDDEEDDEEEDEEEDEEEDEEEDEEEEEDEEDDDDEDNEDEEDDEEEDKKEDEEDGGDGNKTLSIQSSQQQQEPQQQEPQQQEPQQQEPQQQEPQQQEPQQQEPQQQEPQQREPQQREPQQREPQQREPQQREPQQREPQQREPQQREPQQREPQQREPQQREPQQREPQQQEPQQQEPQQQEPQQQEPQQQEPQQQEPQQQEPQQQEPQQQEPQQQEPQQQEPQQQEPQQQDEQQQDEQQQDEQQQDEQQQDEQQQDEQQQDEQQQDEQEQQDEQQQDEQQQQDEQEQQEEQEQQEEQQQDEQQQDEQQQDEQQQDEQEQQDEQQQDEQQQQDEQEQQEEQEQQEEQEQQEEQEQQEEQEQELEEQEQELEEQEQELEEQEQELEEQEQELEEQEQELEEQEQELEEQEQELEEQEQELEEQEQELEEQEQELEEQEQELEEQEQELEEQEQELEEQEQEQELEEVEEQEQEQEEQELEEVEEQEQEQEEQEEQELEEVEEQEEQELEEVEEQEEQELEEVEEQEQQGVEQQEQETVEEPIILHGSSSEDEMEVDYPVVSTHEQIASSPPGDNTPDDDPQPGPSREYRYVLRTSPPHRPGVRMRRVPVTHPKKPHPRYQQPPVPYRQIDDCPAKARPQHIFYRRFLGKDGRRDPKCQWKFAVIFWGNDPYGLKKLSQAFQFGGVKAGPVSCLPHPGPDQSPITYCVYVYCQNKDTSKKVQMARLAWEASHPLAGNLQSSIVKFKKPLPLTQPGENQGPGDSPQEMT
The depositor's hits bear a star; i = inactive; / = not tested or not shown. These rows are one share of the data; rates above refer to the full screens.

SMILES | ALR H2O2 inh | Ecoli growth | HNF4A DNA FP | B2AR ag | FGF22 binding | UCH37 DUB inh | LANA-H2B inh
NS(=O)(=O)c1ccc(CNC(=O)CNC(=O)c2ccc(F)cc2)cc1 | / | 0.7 | 4.1 | -7 | i | 1.3 | 6.9
CCCC[C@@H]1C=C(C(=O)O)[C@H](c2ccc(C)cc2)N1S(=O)(=O)c1ccc(C)cc1 | / | 0.67 | -3.1 | -3 | i | 0.0 | -2.6
Cc1cccc(N2CCN(C(=O)Cn3cccc3)CC2)c1C | -5 | 0.67 | 2.5 | -11 | i | 0.1 | -1.6
Cc1nc2ccccc2n1CC(=O)N/N=C\c1ccccn1 | -5 | / | -4.0 | -5 | / | / | 6.6
O=C(CSc1nc(=O)n2ccccc2n1)NC1CCCCC1 | 6 | 0.65 | -2.1 | -1 | i | 4.7 | 8.2
CCOC(=O)N1CCN(C(=O)COC(=O)c2cc(Cl)cc(Cl)c2)CC1 | 3 | 0.66 | -2.5 | -4 | i | 1.6 | -1.7
COCCN(Cc1cc2cccc(C)c2[nH]c1=O)C(=O)c1ccccc1 | -3 | 0.67 | -3.0 | 1 | / | -7.5 | 2.8
CC1=C(C(=O)N2CCOCC2)C(c2ccsc2)C2=C(CCCC2=O)N1 (stereo unspecified) | -45 | 0.69 | -3.1 | 0 | / | -108 | 2.9
COc1ccc(C2CC(c3ccccc3)=NN2c2ccc(N)cc2)cc1 (stereo unspecified) | -6 | 0.75 | 19 | -20 | i | -6.6 | 2.8
COc1cccc(OCC(O)CN2CCC(C)CC2)c1 (stereo unspecified) | -11 | 0.76 | 1.1 | -8 | / | 2.8 | 7.0
Cc1ccc(SCc2ccc(C(=O)NCc3cccnc3)cc2)cc1 | -3 | 0.71 | 2.6 | -1 | / | 0.5 | 0.6
CCc1ncc(CN2CCCCC2C(=O)Nc2ccc(Oc3ccccc3)nc2)cn1 (stereo unspecified) | 3 | 0.71 | 4.9 | -41 | i | 2.2 | 5.0
Cc1cccc(N(CC(=O)NCC2CCCO2)C(=O)CCC(=O)Nc2cc(C)on2)c1 (stereo unspecified) | -3 | 0.72 | -2.4 | 2 | / | -0.1 | -1.1
Cc1nnc(NC(=O)CSc2nnc3c(n2)[nH]c2ccc(Br)cc23)s1 | -3 | 0.69 | 4.7 | 1 | i | 5.2 | -4.2
CC(NC(=O)[C@H](C)NC(=O)[C@@H]1CSC2c3ccccc3C(=O)N21)c1ccccc1 (stereo partly specified) | -1 | 0.7 | 2.3 | -1 | i | 1.0 | 2.8
CCOC(=O)NN1C(=O)c2ccccc2NC1c1ccc(OC)cc1OC (stereo unspecified) | -2 | 0.67 | 0.1 | -24 | i | -342 | -5.0
Nc1nnc(SCC(=O)Nc2nccs2)s1 | / | 0.63 | -1.8 | -7 | i | -3.5 | 3.8
CCN(CC)S(=O)(=O)c1ccc(C(=O)NCc2ccc3c(c2)OCO3)cc1 | / | 0.69 | 2.9 | 5 | i | 0.7 | 3.9
CC1CC(=O)Nc2ccccc2N1S(=O)(=O)c1cccs1 (stereo unspecified) | -4 | 0.67 | -0.7 | 8 | i | 3.5 | 0.5
C=CCSC1=NN2CCS(=O)(=O)N=C2S1 | -15 | 0.67 | 3.5 | -9 | i | 0.7 | -4.0
COc1ccc(N2Cc3cccc(C(=O)NC(C)CCc4ccco4)c3C2=O)cc1 (stereo unspecified) | 98* | 0.78 | -32 | -4 | i | -15 | -0.8
c1ccc(-c2cnn3nnnc3n2)cc1 | -8 | 0.7 | 1.5 | -1 | / | 6.2 | -3.0
O=C1c2ccccc2C(Nc2cccnc2)N1Cc1ccccc1 (stereo unspecified) | -11 | 0.73 | 3.3 | -1 | i | 3.0 | -1.1
CCCCn1c(N)c(N(CC(C)C)C(=O)c2ccc(OCc3c(C)noc3C)cc2)c(=O)[nH]c1=O | -19 | 0.71 | -0.4 | -1 | / | -0.8 | 1.1
CCOC(=O)Cc1csc(NC(=O)CCNS(=O)(=O)c2ccc3c(c2)CCC(=O)N3)n1 | -17 | 0.71 | -2.5 | -6 | / | 2.8 | 1.1
CCc1cccc(CC)c1NC(=O)c1ccc(-n2cncn2)nc1 | -12 | 0.69 | 1.8 | 10 | i | 0.4 | -1.1
CCNc1nc(SC(C(C)=O)C(C)=O)nc(N(C)C)n1 | -13 | 0.76 | 0.2 | -6 | / | 1.5 | -3.4
COc1ccc(Nc2ncnc3c2cnn3-c2cccc(C)c2)cc1OC | / | 0.75 | -4.2 | -3 | i | -44 | /
CCCc1cc(=O)[nH]c(SCC(=O)C(C)(C)C)n1 | 14 | 0.67 | 1.1 | 0 | / | 0.5 | -4.4
O=C(Nc1ccc2oc(=O)ccc2c1)c1ccccc1[N+](=O)[O-] | -13 | 0.58 | -2.0 | -4 | i | 2.3 | 11
NC(=O)NC(=O)Nc1ccccc1Cl | 1 | 0.67 | -1.4 | 1 | / | -1.1 | -0.5
O=C1CCN(CCCc2ccccc2)CCN1CCO | 0 | 0.65 | -0.1 | 4 | i | 2.0 | 11
CCC(CC)=NNc1cccc([N+](=O)[O-])c1 | -2 | 0.67 | 0.9 | 2 | / | 1.5 | 6.8
COc1ccc(NS(=O)(=O)c2cccc(C(=O)NCC(c3cccs3)N3CCOCC3)c2)cc1 (stereo unspecified) | / | 0.7 | 0.4 | -1 | i | -3.3 | -3.0
O=C1COc2ccc(C(=O)COC(=O)c3cccnc3Cl)cc2N1 | -1 | 0.72 | 0.3 | -3 | i | 3.0 | 1.7
CCOC(=O)c1c(NC(=O)COc2ccccc2OCC)sc2c1CC(C)(C)NC2(C)C | -1 | 0.65 | 3.0 | 62* | / | -2.7 | -2.1
Cc1ccc2c(n1)CC(C)(C)CC2=O | -2 | 0.72 | 1.8 | 3 | / | 0.2 | 7.0
Cc1cc(C)cc(C(=O)NCCCc2ccccc2)c1 | -6 | 0.61 | -0.8 | -6 | / | 0.1 | 7.9
O=C(Cn1nc(-c2ccc3c(c2)OCCO3)ccc1=O)Nc1cccc(NC(=O)c2ccccn2)c1 | / | 0.73 | / | / | / | -7.9 | -3.7
CC(=O)c1sc2c(c1OC(=O)c1ccc(Cl)cc1)c(=O)n(-c1ccccc1)c(=S)n2-c1ccccc1 | / | / | 3.3 | -1 | i | / | /
COc1ccc(CCN2C(=O)NC(NS(=O)(=O)c3ccccc3)(C(F)(F)F)C2=O)cc1OC (stereo unspecified) | / | 0.69 | -2.0 | 2 | i | 1.8 | 4.3
CC(=O)NC(NC(C)=O)c1cccc(OCc2ccccc2)c1 | 0 | 0.72 | -0.8 | -1 | i | 0.8 | -0.8
COc1ccc(/C=C/C(=O)OCc2cccc([N+](=O)[O-])c2)cc1 | -5 | 0.67 | -0.5 | 6 | i | 2.4 | 0.2
CC(C)NC(=O)COc1cccc2ccccc12 | -33 | 0.61 | 4.5 | -3 | i | 4.1 | -3.3
COc1ccccc1NS(=O)(=O)c1ccc(NN=C2CCCC2)c([N+](=O)[O-])c1 | -24 | 0.74 | -2.1 | -13 | / | 6.2 | -4.0
COC(=O)c1cn(C)c2ccc(S(=O)(=O)N3CC(C)CC(C)C3)cc2c1=O (stereo unspecified) | -2 | 0.67 | -3.4 | -7 | / | 2.3 | -2.0
Cc1ccc(C(=O)NC(=S)N(C)C2CCCCC2)cc1Br | -2 | / | 3.8 | 3 | i | / | -1.3
CN(C(=O)COC(=O)/C=C/c1ccc(F)cc1)c1c(N)n(Cc2ccccc2)c(=O)[nH]c1=O | -6 | 0.72 | 1.2 | -5 | i | 4.1 | -2.4
O=C(NCc1ccc(F)cc1)C1CCN(S(=O)(=O)N2CCC3(CC2)OCCO3)CC1 | -2 | 0.71 | 1.8 | 4 | i | -1.7 | 2.8
Cc1nc2sc3c(=O)[nH]nnc3c2c(C)c1Br | 0 | 0.61 | -4.6 | 13 | i | 9.4 | -0.7
O=C1CCCC(O)=C1C=Nc1ccc(O)cc1 | 99* | 0.74 | 0.8 | -7 | / | 3.6 | 17*
COC(=O)c1ccccc1NC(=O)CN1CCOCC1 | -10 | 0.68 | 1.4 | -2 | / | 2.6 | 0.1
O=C(CCl)Nc1cc(S(=O)(=O)N2CCCCCC2)ccc1Cl | 1 | 0.7 | 1.1 | -3 | / | 1.2 | -0.2
CCOc1ccc(C(=O)NC2CCN(S(C)(=O)=O)CC2)cc1 | 0 | 0.69 | 2.6 | -3 | / | 0.6 | -3.0
COc1ccc(NS(=O)(=O)c2cccc(C(=O)NCC(c3ccco3)N3CCCCC3)c2)cc1 (stereo unspecified) | -2 | 0.61 | -1.3 | 6 | i | 1.7 | -7.0
COc1cc(C(=O)Nc2sc3c(c2C(=O)NCc2ccco2)CCCC3)cc(OC)c1OC | -4 | 0.75 | -3.1 | -1 | / | -268 | -1.0
NC(=NCc1ccccc1)C(N=Nc1ccccc1)C(=O)NCc1ccccc1 (stereo unspecified) | / | 0.66 | 1.2 | -3 | i | 5.3 | /
Cc1cc(NC(=O)c2ccccc2[N+](=O)[O-])ccc1Br | 5 | 0.65 | -1.0 | 8 | i | 2.4 | -6.1
O=[N+]([O-])c1ccc(OCC(O)CN(CCO)CCO)cc1 (stereo unspecified) | -1 | 0.7 | -3.3 | -5 | i | 1.3 | -3.0
O=C1c2ccccc2C(=O)N1c1nccs1 | / | 0.64 | 0.4 | 1 | i | 1.4 | /
Carrying on:
SMILES | ALR H2O2 inh | Ecoli growth | HNF4A DNA FP | B2AR ag | FGF22 binding | UCH37 DUB inh | LANA-H2B inh
CCNc1oc(COc2cccc(C)c2)nc1C#N | 0 | 0.68 | -2.8 | 5 | / | 5.7 | 6.6
Cn1c(=O)c2c(ncn2CC(=O)OCC(=O)Nc2ccc(F)cc2Cl)n(C)c1=O | -3 | 0.68 | -1.8 | 0 | i | 2.0 | 3.2
COc1ccc(NC(=O)Nc2cccc(C(F)(F)F)c2)cn1 | -6 | 0.54 | -1.2 | 0 | i | 3.5 | 4.1
Fc1ccc(C2CC(c3ccco3)=NN2c2ccccc2)cc1 (stereo unspecified) | 61 | 0.67 | -1.3 | 21 | / | i | 2.4
Cc1csc(Sc2ccc(C(=O)OCC(=O)Nc3ccc(F)cc3[N+](=O)[O-])cc2[N+](=O)[O-])n1 | -3 | 0.67 | 0.2 | 1 | i | 0.9 | -2.6
COc1ccc(S(=O)(=O)N2CCN(S(=O)(=O)c3ccc4c(c3)OCCO4)CC2)cc1C | / | 0.73 | -1.1 | 0 | / | -1.4 | /
COc1ccccc1/C=N/Nc1cc(C)nc2ccc(C)cc12 | 99* | / | -1.3 | -2 | i | / | 0.1
N#Cc1cccc(Oc2ccc(S(=O)(=O)N3CCCC3)cn2)c1 | / | 0.69 | -0.1 | -4 | i | 0.1 | /
COc1ccc(S(=O)(=O)N(C)c2ccc(C(=O)NC3CCCC3)cc2)cc1 | -4 | 0.71 | 1.5 | -12 | i | 3.5 | -3.6
Nc1cc(=O)[nH]c(SCC(=O)Nc2cc([N+](=O)[O-])ccc2Cl)n1 | 3 | 0.7 | -0.4 | 1 | i | 1.9 | 1.7

Complete entries as entered above. Screens in order: ALR H2O2 inh, Ecoli growth, HNF4A DNA FP, B2AR ag, FGF22 binding, UCH37 DUB inh, LANA-H2B inh
COc1ccc(S(=O)(=O)N(C)c2ccc(C(=O)NC3CCCC3)cc2)cc1 in the list: -4, 0.71, 1.5, -12, i, 3.5, -3.6
Nc1cc(=O)[nH]c(SCC(=O)Nc2cc([N+](=O)[O-])ccc2Cl)n1 in the list: 3, 0.7, -0.4, 1, i, 1.9, 1.7
Cn1c(=O)c2c(ncn2CC(=O)OCC(=O)Nc2ccc(F)cc2Cl)n(C)c1=O in the list: -3, 0.68, -1.8, 0, i, 2.0, 3.2
COc1ccc(S(=O)(=O)N2CCN(S(=O)(=O)c3ccc4c(c3)OCCO4)CC2)cc1C in the list: /, 0.73, -1.1, 0, /, -1.4, /
CCNc1oc(COc2cccc(C)c2)nc1C#N in the list: 0, 0.68, -2.8, 5, /, 5.7, 6.6

High-throughput results as filed in PubChem BioAssay.
